rRNA inh HTS = inhibits bacterial ribosomal RNA function over humanized ribosomes; 350,000 compounds, 1.6% hits; E. coli WT GFP vs humanized-ribosome RFP mutants, fluorescence, 24 h; stronger effect = lower value; DMSO median 0, no signal -100; GFP signal change (wild-type ribosome), % (test concentration not listed);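 active means significant combined selectivity score with lowered wild-type GFP, culture density cut under 30%, mutant RFP and density less affected; inactive means any of these conditions unmet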; further: one replicate is shown; some compounds called inactive have numbers as strong as hits
rRNA inh HTS OD600 = second read-out of rRNA inh HTS, no call of its own (marks repeat the call); OD600 change, %; measured here: OD600 growth;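 optical density of the mix in the first replicate; 0 = DMSO median and -100 = no signal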
rRNA inh HTS RFP = recorded beside rRNA inh HTS, whose call it bears; RFP signal change, %; measured here: RFP humanized mutant strains;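 first replicate; 0 = DMSO median and -100 = no signal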
An asterisk follows results filed as active; & = joins results of further samples. The list is partial, so the mix of outcomes need not match the whole.

A first look (5 entries):
SMILES,rRNA inh HTS,rRNA inh HTS OD600,rRNA inh HTS RFP
COC(=O)C1=C(C)N(Cc2ccccc2C(F)(F)F)C(=NCc2ccccc2C(F)(F)F)NC1c1ccc(Cl)cc1 (stereo unspecified),11,12,3.7
CCC(=O)Nc1ccc2c(c1)C(=O)N(C)C[C@H](OC)[C@H](C)CN(Cc1ccncc1)[C@@H](C)CO2,1,3,0.1
Cc1noc(C)c1S(=O)(=O)Nc1ccc2c(c1)CC(=O)N([C@@H](C)CO)C[C@@H](C)[C@@H](CN(C)C)O2,-2,-9,-3.7
C[C@H]1CN([C@@H](C)CO)C(=O)c2cccc(NS(C)(=O)=O)c2O[C@H]1CN(C)S(=O)(=O)c1ccc(Cl)cc1,0,3,1.2
CCCOc1ccc(F)cc1-c1cc(C(=O)NCc2cccc(C(F)(F)F)c2)[nH]n1,-10,-32,-1.2

The listing, from the first entry:
SMILES,rRNA inh HTS,rRNA inh HTS OD600,rRNA inh HTS RFP
COC(=O)C1=C(C)N(Cc2ccccc2C(F)(F)F)C(=NCc2ccccc2C(F)(F)F)NC1c1ccc(Cl)cc1 (stereo unspecified),11,12,3.7
CCC(=O)Nc1ccc2c(c1)C(=O)N(C)C[C@H](OC)[C@H](C)CN(Cc1ccncc1)[C@@H](C)CO2,1,3,0.1
Cc1noc(C)c1S(=O)(=O)Nc1ccc2c(c1)CC(=O)N([C@@H](C)CO)C[C@@H](C)[C@@H](CN(C)C)O2,-2,-9,-3.7
C[C@H]1CN([C@@H](C)CO)C(=O)c2cccc(NS(C)(=O)=O)c2O[C@H]1CN(C)S(=O)(=O)c1ccc(Cl)cc1,0,3,1.2
CCCOc1ccc(F)cc1-c1cc(C(=O)NCc2cccc(C(F)(F)F)c2)[nH]n1,-10,-32,-1.2
Cc1ccc2nc(C3CCCCC3)c(Cc3ccsc3)n2c1,-43,-78,-14
CCC(=O)N(C)C[C@@H]1Oc2ncc(C#Cc3ccc(OC)cc3)cc2C(=O)N([C@H](C)CO)C[C@H]1C,-5,-5,-1.3
O=C(c1ccncc1)N1CC2(C1)[C@H](c1ccccc1)[C@@H](CO)N2Cc1ccccn1,1,2,-1.9
CC(C)NC(=O)N1CCCCN2[C@H](CO)[C@@H](c3ccc(C#C[C@H](C)O)cc3)[C@@H]2C1,5,22,-1.4
Cc1noc(C)c1S(=O)(=O)N(C)C[C@@H]1OCCCC[C@H](C)Oc2ccc(NC(=O)Nc3ccc(C(F)(F)F)cc3)cc2C(=O)N([C@H](C)CO)C[C@H]1C,-6,4,-3.8
O=C(Nc1cc(Cl)cc(Cl)c1)N[C@H]1CC[C@@H](CCNS(=O)(=O)c2cccc(F)c2)O[C@H]1CO,-58,-78,-16
COc1ccc(NC(=O)C2(C)CCN2Cc2ccc3ccccc3c2)cc1OC (stereo unspecified),-13,-49,-7.2

Random excerpt: two entries already listed
SMILES,rRNA inh HTS,rRNA inh HTS OD600,rRNA inh HTS RFP
CCC(=O)Nc1ccc2c(c1)C(=O)N(C)C[C@H](OC)[C@H](C)CN(Cc1ccncc1)[C@@H](C)CO2,1,3,0.1
Cc1noc(C)c1S(=O)(=O)N(C)C[C@@H]1OCCCC[C@H](C)Oc2ccc(NC(=O)Nc3ccc(C(F)(F)F)cc3)cc2C(=O)N([C@H](C)CO)C[C@H]1C,-6,4,-3.8

Remaining list, next part.
SMILES,rRNA inh HTS,rRNA inh HTS OD600,rRNA inh HTS RFP
CN(C)CC(=O)N[C@H]1CC[C@@H](CCn2cc(CN(C)C)nn2)O[C@@H]1CO,3,2,-2.4
C[C@@H]1CN([C@H](C)CO)C(=O)Cc2cc(NS(=O)(=O)c3cccs3)ccc2O[C@@H]1CN(C)C(=O)Nc1cccc2ccccc12,0,-5,2.4
COc1ccc(CNC(=O)C[C@H]2C=C[C@@H](NS(=O)(=O)c3cccc(OC)c3)[C@@H](CO)O2)cc1,-2,-7,-0.8
O=C(C[C@@H]1CC[C@H]2[C@@H](COC[C@@H](O)CN2Cc2ccccc2)O1)N1CCOCC1,-3,-3,-3.0
O=C(NCC[C@H]1CC[C@H](NC(=O)c2cnccn2)[C@@H](CO)O1)c1ccc2c(c1)OCO2,3,2,-2.5
CCCC#Cc1ccc2c(c1)O[C@H](CN(C)C(=O)C1CC1)[C@H](C)CN([C@@H](C)CO)S2(=O)=O,-4,-11,3.0
C[C@H]1CN([C@@H](C)CO)C(=O)c2cc(NC(=O)Nc3ccc4c(c3)OCO4)ccc2O[C@@H]1CN(C)Cc1ccc(Oc2ccccc2)cc1,1,4,3.7
Cc1cccc(C)c1-n1nnnc1C1(C)CCC(=O)N1Cc1cccnc1 (stereo unspecified),10,13,-2.3
O=C(C[C@H]1C=C[C@H](NS(=O)(=O)c2ccccc2)[C@@H](CO)O1)N1CCN(c2ccccc2)CC1,0,0,1.0
COc1ccc(C#Cc2ccc3c(c2)O[C@@H](CN(C)S(=O)(=O)c2ccccc2F)[C@H](C)CN([C@@H](C)CO)S3(=O)=O)cc1,4,6,-1.3
COc1ccc(C2CC=C(C(C)=O)CN2S(=O)(=O)c2ccc(C)cc2)cc1 (stereo unspecified),2,-22,-1.6
CCc1nc2ccc(C(=O)Nc3ccc(NC(C)=O)cc3)cn2c1N(CCC(C)C)CCN(C)C,-2,-1,8.3
COc1ccc2c3c(n(C)c2c1)[C@H](CO)N(Cc1ccc2c(c1)OCO2)CC31CN(C(=O)c2ccc3c(c2)OCO3)C1,-2,4,-1.7
Cc1ccc(S(=O)(=O)Nc2ccc3c(c2)C(=O)N([C@@H](C)CO)C[C@H](C)[C@H](CN(C)C(=O)Nc2ccc(C(F)(F)F)cc2)OCCCC[C@H](C)O3)cc1,2,0,-1.5
C[C@@H]1CN([C@@H](C)CO)C(=O)CCCn2cc(nn2)CO[C@H]1CN(C)C(=O)CCCN(C)C,7&-2,4&8,-2.8&-0.4
CCCC#Cc1ccc([C@H]2[C@@H](CO)N3C(=O)CN(C(=O)c4ccccc4)C[C@H]23)cc1,3,-5,-0.2
CN(C)CC(=O)N1[C@@H]2c3ccc(C4=CCCC4)c(=O)n3C[C@H]1[C@H](CO)[C@H]2C(=O)NCC1CC1,3,1,0.4
CCCNC(=O)N1CC2(C1)[C@H](c1ccccc1)[C@@H](CO)N2C(=O)c1cccnc1,-3,-3,-1.4
O=C(C[C@H]1CC[C@@H]2[C@H](COC[C@@H](O)CN2S(=O)(=O)c2cccc(F)c2)O1)Nc1ccccc1,-3,-3,1.0
Cc1ccc(C(=O)Nc2nc(C(N)C(C)C)cs2)cc1 (stereo unspecified),7,5,2.5
CC(C)(C)n1nnnc1C(c1ccccc1)N1CCN(C(=O)c2ccco2)CC1 (stereo unspecified),8,1,0.1
C[C@@H]1CCCCO[C@H](CN(C)Cc2ccc(Cl)c(Cl)c2)[C@@H](C)CN([C@H](C)CO)C(=O)c2cc(NC(=O)Nc3ccccc3)ccc2O1,3,7,1.1
C[C@@H]1CN([C@@H](C)CO)C(=O)Cc2cc(NC(=O)NC3CCCCC3)ccc2O[C@H]1CN(C)C(=O)Nc1ccc(C(F)(F)F)cc1,-6,-6,1.3
CCNC(=O)Nc1ccc2c(c1)C(=O)N(C)[C@H]1CC[C@H](CC(=O)Nc3ccccc3F)O[C@@H]1CO2,-1,3,-1.0
COc1ccc(NC(=O)N(C)C[C@H]2Oc3ccc(NC(=O)NC4CCCCC4)cc3CC(=O)N([C@@H](C)CO)C[C@H]2C)cc1,3,5,3.2
COc1ccc(S(=O)(=O)Nc2ccc3c(c2)CC(=O)N([C@@H](C)CO)C[C@H](C)[C@H](CN(C)Cc2ccc(Cl)c(Cl)c2)O3)cc1,-2,5,-0.5
COc1ccc2c3c([nH]c2c1)[C@H](CO)N(C(=O)c1ccncc1)CC31CCN(C(=O)c2ccncc2)CC1,1,0,-2.2
COc1ccc(S(=O)(=O)Nc2ccc3c(c2)C(=O)N([C@@H](C)CO)C[C@H](C)[C@@H](CN(C)S(=O)(=O)c2ccc(Cl)cc2)OCCCC[C@@H](C)O3)cc1,1,6,-4.8
Cc1ccccc1-c1cnc2c(c1)C(=O)N([C@@H](C)CO)C[C@H](C)[C@H](CN(C)Cc1ccncc1)O2,2,2,-1.1
COc1cccc(S(=O)(=O)N[C@H]2CC[C@@H](CCn3cc(-c4ccc(F)cc4)nn3)O[C@H]2CO)c1,-3,-7,-1.3
O=C(C1CC1)N1C[C@H]2[C@@H](c3ccccc31)[C@H](CO)N2Cc1ccccc1Cl,-9,-10,6.3
C[C@H]1CN([C@@H](C)CO)C(=O)c2cccc(NC(=O)Nc3ccc4c(c3)OCO4)c2O[C@@H]1CN(C)C(=O)Nc1cccc2ccccc12,-1,9,-1.7
O=C(Nc1cccc(F)c1)N1CC(=O)N2[C@H](C1)[C@H](c1ccc(C#Cc3cccnc3)cc1)[C@@H]2CO,-2,-14,-1.8
C[C@@H]1CN([C@@H](C)CO)C(=O)c2cccc(NS(=O)(=O)c3cn(C)cn3)c2O[C@H]1CN(C)Cc1ccc(-c2ccccc2)cc1,-1,1,2.0
CCNC(=O)C[C@H]1CC[C@H]2[C@H](COc3ccc(NC(=O)Nc4ccccc4OC)cc3C(=O)N2C)O1,-1,-2,0.2
O=C(C[C@H]1CC[C@@H]2[C@H](COC[C@H](O)CN2Cc2ccccc2)O1)N[C@@H]1CCN(Cc2ccccc2)C1,-1,-12,-0.3

Later entries
smiles	rRNA inh HTS	rRNA inh HTS OD600	rRNA inh HTS RFP
N#C[C@@H]1[C@H](c2ccc(C#Cc3cccc(F)c3)cc2)[C@@H](CO)N1C(=O)C1CC1	0	1	0.5
C[C@H]1CN([C@@H](C)CO)C(=O)c2cc(NC(=O)Nc3ccc4c(c3)OCO4)ccc2O[C@H]1CN(C)Cc1ccncc1	6	-3	0.6
CO[C@@H]1CN(C)C(=O)c2cc(NC(=O)NC(C)C)ccc2OC[C@H](C)N(Cc2ccc(-c3ccccn3)cc2)C[C@H]1C	-8	0	4.2
COc1ccccc1-c1cnc2c(c1)C(=O)N([C@@H](C)CO)C[C@@H](C)[C@H](CN(C)Cc1cccnc1)O2	1	9	-2.9
CN1C(=O)c2cc(NC(=O)c3cccc(F)c3)ccc2OC[C@@H]2O[C@@H](CC(=O)NCc3ccccc3Cl)CC[C@@H]21	-3	-10	6.0
COc1ccc(C(=O)C(=O)N2CCN(c3ccccc3F)CC2)cc1	-11	-30	1.0
CNc1cncc(-c2ccc(F)c(F)c2)n1	-5	0	-1.4
O=C(C[C@@H]1CC[C@H]2[C@@H](COC[C@H](O)CN2Cc2ccc(F)cc2)O1)N1CCc2ccccc2C1	-8	-18	3.3
Cc1ccc2nc(-c3ccc(F)cc3)c(CC3CCCCC3)n2c1	14	11	2.1
CSc1ncnc2c1ncn2CCCNCc1ccccc1	11	1	-1.6
Cc1noc(C)c1NC(=O)Nc1ccc2c(c1)C(=O)N([C@H](C)CO)C[C@H](C)[C@H](CN(C)CC1CC1)OCCCC[C@H](C)O2	0	0	-0.8
C[C@@H]1CCCCO[C@H](CN(C)C(=O)Nc2ccc(F)cc2)[C@@H](C)CN([C@H](C)CO)C(=O)c2cc(NS(=O)(=O)c3ccccc3)ccc2O1	-1	-6	-0.7
Cc1noc(C)c1S(=O)(=O)Nc1ccc2c(c1)C(=O)N([C@@H](C)CO)C[C@@H](C)[C@H](CN(C)CC1CCCCC1)OCCCC[C@@H](C)O2	2	0	0.4
O=C(C[C@@H]1C=C[C@@H](NC(=O)Nc2ccccc2F)[C@@H](CO)O1)NCc1ccc(F)cc1	-2	-2	-0.2
C[C@H](CO)N1C[C@H](C)[C@@H](CN(C)S(=O)(=O)c2ccc(F)cc2)OCc2ccccc2-c2ccccc2C1=O	8	-8	-0.2
COc1ccc(-c2cnc3c(c2)C(=O)N([C@H](C)CO)C[C@H](C)[C@@H](CN(C)Cc2cccnc2)O3)cc1	0	9	-2.7
C[C@H]1CCCCO[C@H](CN(C)C(=O)c2ccncc2)[C@@H](C)CN([C@@H](C)CO)C(=O)c2cc(NC(=O)CCC(F)(F)F)ccc2O1	0	19	0.1
COc1ccc(Cc2c(-c3cccc(Cl)c3)nc3ccc(Br)cn23)c(C)c1	5	-4	1.0
COc1cccc(C(=O)Nc2ccc3c(c2)C(=O)N(C)[C@@H]2CC[C@H](CC(=O)NCc4ccc(F)cc4)O[C@H]2CO3)c1	-3	-7	-3.6
C[C@@H]1CN([C@H](C)CO)C(=O)c2cc(C#CC3CCCCC3)cnc2O[C@@H]1CN(C)C	2	13	-0.9
C[C@H]1CN([C@@H](C)CO)S(=O)(=O)c2ccc(C#CC(C)(C)O)cc2O[C@H]1CN(C)Cc1ccc(-c2ccccc2)cc1	-3	-11	11
C[C@@H]1CCCCO[C@@H](CN(C)S(=O)(=O)c2ccccc2)[C@H](C)CN([C@H](C)CO)C(=O)c2cc(N(C)C)ccc2O1	-8	-12	-3.5
C/C=C/c1ccc2c(c1)O[C@@H](CN(C)C(=O)Cc1ccccc1)[C@@H](C)CN([C@@H](C)CO)S2(=O)=O	-4	-18	1.4
O=C(Nc1ccc2c(c1)[C@H]1C[C@@H](CC(=O)N3CCOCC3)O[C@@H](CO)[C@H]1O2)NC1CCCC1	0	3	-2.1
O=C(C[C@H]1CC[C@H]2[C@@H](COC[C@@H](O)CN2C(=O)c2cccnc2)O1)NCc1ccccc1	1	10	2.4
COc1ccc(CC(N)c2csc(Nc3nncc4ccccc34)n2)cc1 (stereo unspecified)	10	-12	35
O=C([C@@H]1[C@@H](CO)[C@@H]2Cn3c(ccc(-c4ccccc4)c3=O)[C@H]1N2Cc1cccnc1)N1CCOCC1	2	8	-1.6
C[C@@H]1CN([C@H](C)CO)C(=O)Cc2cc(NC(=O)NC3CCCCC3)ccc2O[C@@H]1CN(C)Cc1ccc(C(F)(F)F)cc1	0	2	1.3
